ID4 binder = binders of human ID4 protein, primary screen, biochemical, small molecule microarray, single point; calls only; AID 624137, 2012; DNA-binding protein inhibitor ID-4 (Homo sapiens), P47928; Flag-ID4 binding, fluorescence F/B; 31,000 tested, 1.2% active;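 active = spot signal over background at p below 0.07 in all four prints; compounds were printed on slides so no solution concentration is given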;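 note: a binder raises fluorescence above local background on the spot; about 2 pmol printed per array spot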
Target sequence (P47928 whole entry, looked up): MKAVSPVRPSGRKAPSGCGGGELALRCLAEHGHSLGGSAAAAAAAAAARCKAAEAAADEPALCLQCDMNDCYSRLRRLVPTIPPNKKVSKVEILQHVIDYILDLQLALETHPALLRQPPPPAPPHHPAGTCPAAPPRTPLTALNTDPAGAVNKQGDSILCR
Calls only; i = inactive. Not all compounds are listed, so the mix of outcomes need not match the whole.

SMILES	ID4 binder
C/C=C/c1cnc2c(c1)C(=O)N([C@@H](C)CO)C[C@@H](C)[C@@H](CN(C)Cc1ccccc1F)O2	i
CCC(=O)Nc1ccc(OCc2nc3ccccc3s2)cc1	i
COc1ccc([N+](=O)[O-])cc1NC(=O)CN(c1ccc(F)c(Cl)c1)S(C)(=O)=O	i
O=C(NCCCn1ccnc1)c1sc2cccc(F)c2c1Cl	i
C[C@H]1CN([C@@H](C)CO)C(=O)Cc2cc(NC(=O)C3CCCCC3)ccc2O[C@H]1CN(C)C	i
COc1ccccc1-c1ccc2c(c1)O[C@H](CN(C)CC1CCOCC1)[C@@H](C)CN([C@H](C)CO)S2(=O)=O	i
Cc1cc(C)c(S(=O)(=O)N(C)CC(=O)Nc2ccc(F)c(Cl)c2)c(C)c1	i
C[C@H]1CN([C@@H](C)CO)C(=O)c2cc(C3=CCCC3)cnc2O[C@@H]1CN(C)C(=O)C1CCCCC1	i
O=C(CSc1ccc2ccccc2n1)Nc1ccnc2ccccc12	i
C[C@H](CO)N1C[C@H](C)[C@H](CN(C)C(=O)C2CCOCC2)Oc2ncc(/C=C/c3ccccc3)cc2C1=O	i
N#C[C@H]1[C@@H](c2ccc(C#CCC3CCCC3)cc2)[C@@H](CO)N1C(=O)c1ccccn1	i
CC(C)=CCC[C@](C)(O[C@@H]1O[C@H](CO[C@@H]2OC[C@H](O)[C@H](O)[C@H]2O)[C@@H](O)[C@H](O)[C@H]1O)[C@H]1CC[C@]2(C)C1[C@H](O)CC1[C@@]3(C)CC[C@H](O[C@@H]4O[C@H](CO)[C@@H](O)[C@H](O)[C@H]4O[C@@H]4O[C@H](CO)[C@@H](O)[C@H](O)[C@H]4O)C(C)(C)C3CC[C@]12C (stereo not given in full)	i

Quoted at random: five records from the list, in no set order.
SMILES	ID4 binder
COc1ccc([N+](=O)[O-])cc1NC(=O)CN(c1ccc(F)c(Cl)c1)S(C)(=O)=O	i
Cc1cc(C)c(S(=O)(=O)N(C)CC(=O)Nc2ccc(F)c(Cl)c2)c(C)c1	i
C[C@H]1CN([C@@H](C)CO)C(=O)Cc2cc(NC(=O)C3CCCCC3)ccc2O[C@H]1CN(C)C	i
C[C@H](CO)N1C[C@H](C)[C@H](CN(C)C(=O)C2CCOCC2)Oc2ncc(/C=C/c3ccccc3)cc2C1=O	i
C[C@H]1CN([C@@H](C)CO)C(=O)c2cc(C3=CCCC3)cnc2O[C@@H]1CN(C)C(=O)C1CCCCC1	i

Further structures follow.
SMILES	ID4 binder
O=C(C[C@@H]1CC[C@@H](NS(=O)(=O)c2ccccc2)[C@H](CO)O1)NCc1ccncn1	i
Cc1ccc(Cl)cc1N(CC(=O)Nc1ccc(C(F)(F)F)cc1)S(C)(=O)=O	i
Cc1ccccc1-c1ccc2c(c1)O[C@@H](CN(C)CC1CC1)[C@@H](C)CN([C@@H](C)CO)S2(=O)=O	i
CO[C@H](CN(C)S(=O)(=O)c1cn(C)cn1)[C@H](C)CN(C(=O)Nc1ccc(C(F)(F)F)cc1)[C@H](C)CO	i
CC(NS(=O)(=O)c1ccccc1)C(=O)Nc1ccccc1Sc1ccccc1 (stereo not given)	i

Reformatted field by field: 3 of the compounds above
mol: Cc1ccc(Cl)cc1N(CC(=O)Nc1ccc(C(F)(F)F)cc1)S(C)(=O)=O
  ID4 binder = i
mol: C/C=C/c1cnc2c(c1)C(=O)N([C@@H](C)CO)C[C@@H](C)[C@@H](CN(C)Cc1ccccc1F)O2
  ID4 binder = i
mol: C[C@H]1CN([C@@H](C)CO)C(=O)c2cc(C3=CCCC3)cnc2O[C@@H]1CN(C)C(=O)C1CCCCC1
  ID4 binder = i

High-throughput results from PubChem BioAssay.
